Compound activity from PubChem BioAssay.
YopH PTP inh = YopH (Yersinia) phosphatase inhibition; inhibition, %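 (about 10 µM by stock and volumes)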; AID 898; 140,000 tested, 0.16% active; fluorescence Ex485/Em525;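 active means inhibition of 50% or more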;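 further: controls were vehicle for no effect and minimum signal wells for full effect; inactives centre near -20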
RecA intein inh = Mtb RecA intein splicing inhibition | P9WHJ3 | AID 2221 | inhibition, %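 (about 9 µM by stock and volumes)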 | 290,000 tested, 0.75% active | cell-free RecA intein splicing, fluorescence; in the data active means inhibition above about 30%;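 further: 0% = vehicle wells and 100% = reference inhibitor control wells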
Target sequence (P9WHJ3 whole entry, looked up): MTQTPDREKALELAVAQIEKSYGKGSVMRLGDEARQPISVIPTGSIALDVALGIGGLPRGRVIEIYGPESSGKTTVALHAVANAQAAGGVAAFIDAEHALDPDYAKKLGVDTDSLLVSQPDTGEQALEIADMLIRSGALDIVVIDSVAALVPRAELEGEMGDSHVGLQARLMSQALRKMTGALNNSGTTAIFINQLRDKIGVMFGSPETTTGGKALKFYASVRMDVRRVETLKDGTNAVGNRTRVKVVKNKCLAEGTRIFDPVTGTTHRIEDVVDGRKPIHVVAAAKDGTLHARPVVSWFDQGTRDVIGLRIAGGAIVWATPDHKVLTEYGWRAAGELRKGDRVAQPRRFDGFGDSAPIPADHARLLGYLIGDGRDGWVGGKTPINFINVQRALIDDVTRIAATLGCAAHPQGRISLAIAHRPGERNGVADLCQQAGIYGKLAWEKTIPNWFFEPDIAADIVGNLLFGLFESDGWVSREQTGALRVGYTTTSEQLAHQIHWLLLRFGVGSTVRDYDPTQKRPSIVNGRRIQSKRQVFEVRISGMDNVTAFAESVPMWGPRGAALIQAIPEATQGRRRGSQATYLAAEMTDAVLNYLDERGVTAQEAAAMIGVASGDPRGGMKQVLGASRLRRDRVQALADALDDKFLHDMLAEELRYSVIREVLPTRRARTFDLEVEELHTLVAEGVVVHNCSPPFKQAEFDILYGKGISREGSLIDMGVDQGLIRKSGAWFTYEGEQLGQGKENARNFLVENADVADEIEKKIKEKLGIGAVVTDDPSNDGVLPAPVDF
Mtb H37Rv = M. tuberculosis H37Rv growth inhibitors, H37Rv strain (AID 1626). M. tuberculosis H37Rv growth inhibition; higher % means a stronger effect. one-dose inhibition, % at 10 µM; IC50 in µM for titrated hits. 220,000 tested, 0.95% active;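 active means confirmed in a dose series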;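 further: bacteria incubated seven days before Alamar blue readout; 0% = bacteria only wells and 100% = bacteria with antibiotic wells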
Arbovirus inh = antivirals against arbovirus infection; arbovirus infection cell-based antiviral screen; inhibition, % at 10 µM; 200,000 tested, 0.37% active; AID 1251;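 active means inhibition from about 30%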;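 further: bluetongue infection of BSR cells; cell survival read as ATP light after 72 h; 0% = infected wells without compound and 100% = uninfected wells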
Mtb betalactam = beta-lactam sensitization of Mtb H37Rv; M. tuberculosis H37Rv growth with meropenem, percent inhibition; hits of this screen are not shown here; inhibition, % at 25 µM; 330,000 tested, 0.27% active; AID 434955;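 active means about 74% or more and at least 40 points above the plate without the antibiotic, then above 30% in a dose series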;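 further: growth measured after seven days incubation then overnight dye step; 0% = bacteria only wells and 100% = bacteria with antibiotic; twin plates without the antibiotic show which effects depend on it; some results filed as inactive read as strong as hits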
Arbovirus inh repeat = second read-out of Arbovirus inh, no call of its own (marks repeat the call); inhibition, %; measured here: 10K subset replicate screen; many hits read low in the repeat;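 first of two repeat runs on a subset; 0% = infected and 100% = uninfected wells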
An asterisk follows results filed as active; x = no result given; & = joins results of further samples. Not all compounds are listed. The share of hits here may be higher or lower than overall.

SMILES	YopH PTP inh	RecA intein inh	Mtb H37Rv	Arbovirus inh	Mtb betalactam	others
CC1=C(CC(=O)O)c2cc(F)ccc2/C1=C\c1ccc(S(C)=O)cc1 (stereo unspecified)	x	-1.7	10%	x	-3
COc1cc(CCC(=O)Nc2ccc(S(=O)(=O)NC3=NCCCCC3)cc2)cc(OC)c1OC	x	-0.1	2%	-8	-6
NS(=O)(=O)c1ccc(NC(=O)Cc2c(F)cccc2Cl)cc1	x	3.5	-8%	-2	-1
COc1ccc(CC(=O)Nc2cc(S(=O)(=O)N3CCCCC3)ccc2N2CCN(C)CC2)cc1	-30	0.4	4%	-21	-1
CCCCC(=O)Nc1nc(C)c(-c2csc(Nc3cc(OC)ccc3OC)n2)s1	-36	2.5	76%	-19	-6
OCCCNc1nccc(-c2cc(Nc3cccc(Cl)c3)ncn2)n1	x	-5.1	11%	x	41
CCOC(=O)c1sc(NC(=O)C2CC(=O)N(c3ccc(OC)cc3)C2)nc1C (stereo unspecified)	x	-9.7	x	x	87
COC(=O)c1c(-c2cccc(OC)c2)csc1N	-31	-2.8	-1%	-5	5	Arbovirus inh repeat=-5
COCCCNc1nc2ccccc2[nH]c1=O	x	2.6	0%	-4	-1
C=Cc1ccc(COC(=O)c2cn(CC)c3nc(C)ccc3c2=O)cc1	x	5.0	x	x	-6
CCc1noc(C)c1C(=O)N1CCN(S(=O)(=O)c2cccs2)CC1	x	-1.6	x	x	2
CC1(C)CC(=O)C=C(c2cccnc2)C1	x	-1.1	-7%	x	-8
Cc1c2cnn(CC(=O)NCc3ccccn3)c(=O)c2c(C)n1Cc1ccc(Cl)cc1	x	-0.7	x	x	6
O=S1(=O)CCN2N=C(C34CC5CC(CC(C5)C3)C4)SC2=N1	x	6.9	-3%	-12	4
O=C(Nc1nccs1)c1cc(S(=O)(=O)N2CCOCC2)c(Cl)cc1Cl	-106	0.9	0%	13	5
COc1ccccc1OP(=O)(Nc1ccc(Br)cc1)Oc1ccccc1OC	x	0.7	x	x	-1
S=C(NCc1ccccc1)NNc1ccccc1	x	5.3	2%	4	83
COc1ccc(NC(=O)C(c2ccccn2)N(C(C)=O)c2ccc(C)cc2)cc1 (stereo unspecified)	-13	0.2	-6%	5	-1
O=C(Nc1ccc(F)cc1)Nc1cc(S(=O)(=O)N2CCOCC2)ccc1N1CCCC1	x	2.0	-6%	-8	0
COc1ccc(C(c2nnnn2C(C)(C)C)N2CCN(C(=O)c3ccco3)CC2)cc1 (stereo unspecified)	x	3.6	x	x	4
COc1cc(CNCCN2CCOCC2)ccc1OCc1ccc(Cl)cc1Cl	-8	1.2	7%	-24	84
COc1ccc(C(=O)COC(=O)C(CCCCN2C(=O)C3C4C=CC(C4)C3C2=O)N2C(=O)C3C4C=CC(C4)C3C2=O)cc1 (stereo unspecified)	-17	-1.9	-1%	2	-4
Nc1nc(-c2ccc(Br)cc2)c(S(=O)(=O)c2ccccc2)s1	-22	81*	2%	-4	2
COC(=O)/C=c1/s/c(=C(\C#N)C(=O)NCc2ccco2)n(-c2ccc(C)cc2)c1=O	-17	20	-3%	-1	2

Filtered by structure: the compounds so far with fluorine (3)
SMILES	YopH PTP inh	RecA intein inh	Mtb H37Rv	Arbovirus inh	Mtb betalactam	others
CC1=C(CC(=O)O)c2cc(F)ccc2/C1=C\c1ccc(S(C)=O)cc1 (stereo unspecified)	x	-1.7	10%	x	-3
NS(=O)(=O)c1ccc(NC(=O)Cc2c(F)cccc2Cl)cc1	x	3.5	-8%	-2	-1
O=C(Nc1ccc(F)cc1)Nc1cc(S(=O)(=O)N2CCOCC2)ccc1N1CCCC1	x	2.0	-6%	-8	0

Next results.
SMILES	YopH PTP inh	RecA intein inh	Mtb H37Rv	Arbovirus inh	Mtb betalactam	others
O=C(NCC1CCCO1)c1cc(-c2ccccc2F)no1 (stereo unspecified)	x	2.8	x	x	-2
COC(=O)C1=C(C)NC(C)=C(C(=O)OC)C1c1ccccc1[N+](=O)[O-]	-51	-1.8&-0.1	0%	-27	-4
COc1ccc(CNC(=O)c2noc(C(C)C)c2[N+](=O)[O-])cc1	-14	-0.9	5%	11	13
CC(=O)NCc1c(Cl)cccc1-n1cccc1	-47	0.1	1%	2	-21
CC(=O)N1c2ccc(S(=O)(=O)N(C)CC(=O)NCc3ccccc3)cc2CC1C (stereo unspecified)	x	-2.7	x	x	-5
O=C(CSc1nc2ccccc2[nH]1)Nc1ccc2c(c1)OCCO2	-35	x	7%	1	-1
O=c1ccsn1Cc1ccccc1	-39	-3.4	7%	-25	1
Cc1ccc(S(=O)(=O)CCc2nc3ccccc3[nH]2)cc1C	x	-1.7	7%	12	-2
C[C@]12CCC3c4ccc(O)cc4CCC3C1CC/C2=N\N (stereo partly specified)	x	3.3	x	x	0
Cc1csc(SCC(=O)Nc2cc(S(=O)(=O)N(C)C)ccc2C)n1	x	2.6	x	x	2
CN1OC[C@@H]2COc3ccc4ccccc4c3[C@@H]21	x	-2.4	x	-1	4
Cc1ccc(S(=O)(=O)NCC(c2ccco2)N2CCOCC2)cc1 (stereo unspecified)	-15	-0.2	7%	4	-3

Pulled by compound from the entries so far (six):
SMILES	YopH PTP inh	RecA intein inh	Mtb H37Rv	Arbovirus inh	Mtb betalactam	others
O=C(Nc1nccs1)c1cc(S(=O)(=O)N2CCOCC2)c(Cl)cc1Cl	-106	0.9	0%	13	5
C=Cc1ccc(COC(=O)c2cn(CC)c3nc(C)ccc3c2=O)cc1	x	5.0	x	x	-6
CN1OC[C@@H]2COc3ccc4ccccc4c3[C@@H]21	x	-2.4	x	-1	4
COc1cc(CCC(=O)Nc2ccc(S(=O)(=O)NC3=NCCCCC3)cc2)cc(OC)c1OC	x	-0.1	2%	-8	-6
CC(=O)N1c2ccc(S(=O)(=O)N(C)CC(=O)NCc3ccccc3)cc2CC1C (stereo unspecified)	x	-2.7	x	x	-5
Cc1csc(SCC(=O)Nc2cc(S(=O)(=O)N(C)C)ccc2C)n1	x	2.6	x	x	2

Carrying on:
SMILES	YopH PTP inh	RecA intein inh	Mtb H37Rv	Arbovirus inh	Mtb betalactam	others
Cc1ccc(CCNC(=O)c2cc(-c3ccncc3)nc3ccc(S(=O)(=O)N4CCOCC4)cc23)cc1	x	4.0	x	x	4
Cc1ccc(/C=N/NC(=O)Cn2cncn2)cc1	x	-2.0	-4%	5	-7
CCN(Cc1ccccc1)C(=O)COC(=O)Cn1cnc2ccccc21	x	3.3	3%	6	-2
O=C(NC(C(Cl)Cl)N1CCOCC1)c1ccccc1 (stereo unspecified)	x	0.0	5%	4	5
COc1cccc(N/C(N)=N/c2nc(C(F)(F)F)cc(=O)[nH]2)c1	-26	-3.7	-5%	4	6
N#CCC(=O)N/N=C/c1ccc(OC2CSC2)cc1	x	-0.8	-6%	-8	89
COc1ccc(CN2C(=O)CN(C3CCCCCC3)C(=O)C2c2ccc(F)cc2)cc1 (stereo unspecified)	-1	-1.6	-1%	-2	0
Cc1cc([N+](=O)[O-])c(NC2CCCCC2)c([N+](=O)[O-])c1	-23	-3.1	-9%	x	-9
CCC1CCCCN1S(=O)(=O)c1ccc(-n2cnnn2)c(C)c1 (stereo unspecified)	x	1.0	x	x	2
COC(=O)C1=C(C)N(Cc2ccccc2)C(=O)N[C@H]1c1ccccc1	-8	0.3	-6%	-2	-17
CCOC(=O)c1ccc(NC(=O)CSc2nnc(C3CC3)n2C)cc1	-12	1.3	57%	2	41
O=C(NCc1ccc(Cl)cc1)c1n[nH]c([N+](=O)[O-])c1Cl	x	-2.9	-10%	22	0
COc1ccc(CC(=O)OCc2cc(=O)n3cc(Br)ccc3n2)cc1OC	x	-2.2	-7%	9	-12
CCn1c(CSc2nc3ccccc3s2)nnc1SCC(=O)c1ccc(O)cc1O	-22	-5.3	3%	9	0
Cn1nnnc1SCC(=O)c1ccc(Br)s1	-10	8.6	-10%	5	12
CCOc1cc(CNc2ccc(N3CCCCC3)cc2)cc(Br)c1OCC(=O)NC(C)(C)C	-10	0.5	4%	-9	5
COC(=O)c1ccc([C@@H]2C[C@H]3CN(Cc4cccnc4)C(=O)[C@]34CCCN24)cc1	x	6.8	-2%	2	3
Cc1cccc2nc(-c3ccco3)oc(=O)c12	x	-0.8	x	x	3
CCc1c(C)nc(N)nc1N1N=C1SCC#N	2	1.0	-3%	6	-19
CCc1nnc(NC(=O)CSc2nc3cccnc3n2C2CCCCC2)s1	-34	3.1	55%	21	95
CCc1ccc(/C=C(\Cl)c2nc3cc(Cl)ccc3c(=O)[nH]2)cc1	-32	3.6	-5%	2	-3
CC(C)Cn1c(N)c(/C=N/NC(=O)c2ccc(Cl)cc2)c(=O)n(C)c1=O	x	-0.7	x	x	4
CC1CCN(c2ccc3nnc(CCC(=O)Nc4ccc(F)cc4)n3n2)CC1	x	0.2	x	x	2
CNc1ccc(/C=C(\C#N)c2ccccn2)cc1[N+](=O)[O-]	x	-2.5	3%	-13	0
C=CCOc1ccccc1C1C2=C(CC(C)(C)CC2=O)Nc2c1c(=O)n(C)c(=O)n2C (stereo unspecified)	-1	-2.3	x	6	-3
CCC(CO)NCc1ccc2c(c1)n(C)c(=O)n2C (stereo unspecified)	-33	-2.0	-9%	2	-1
CC1CCN(S(=O)(=O)N2CCC(C(=O)NCc3cccs3)CC2)CC1	-35	-1.0	-5%	4	-2
C/C=C/C(=O)Nc1nnc(-c2ccccc2C)s1	x	1.2	-2%	0	-3
COc1ccc(-c2cc(C(F)(F)F)n3nc(C(=O)N4CCOCC4)nc3n2)cc1	-13	-0.1	2%	8	x
C[N+]1(C)CC2([N+](=O)[O-])CC=C(Oc3ccccc3)C([N+](=O)[O-])(C2)C1 (stereo unspecified)	-26	1.0	0%	7	-2
Cn1c(=O)c2c(nc(SCCN3CCCCC3)n2C)n(C)c1=O	-25	-1.8	x	4	5
CCS(=O)(=O)c1nc(S(=O)(=O)c2ccc(C)cc2)c(N2CCN(CCO)CC2)s1	x	14	x	x	2
CCCNC(=O)CN1C(=O)c2ccccc2Sc2ncccc21	x	-0.1	x	x	3
CCOc1ccc(Nc2nnc(SCc3nc4ccccc4c(=O)[nH]3)s2)cc1	x	-1.5	-2%	x	9
COc1c(C)cc(C(=O)C2CCCN(C(=O)C3=C(C)OCCO3)C2)cc1C (stereo unspecified)	x	-4.3	-3%	1	-8
Cc1cccc(N=Cc2c(O)n(-c3ccccc3C)c(=O)[nH]c2=O)c1	-23	-2.9	-8%	14	2
Cc1ccc2c(CC(=O)NCC(=O)Nc3c(C)cccc3C)coc2c1	x	-1.5	x	x	-14
CC(C)(C)NC(=O)/C(=C\c1ccc(Br)cc1)NC(=O)c1cccs1	-33	-22	6%	-2	3
CCCc1nc2sc3c(=O)[nH]cnc3c2c2c1CCCC2	x	0.2	-9%	x	9
COc1ccc(NC(=S)NCc2cccnc2)cc1	x	-0.2	2%	0	1
O=C(O)C(=O)Nc1nc(-c2ccc3c(c2)OCCO3)cs1	x	-3.8	x	x	2
Cc1cc[n+](-c2[nH]c(=O)sc2/C=N/N=C(\[O-])c2ccncc2)cc1	x	-2.7	x	x	95
COCCCNC(=O)Cn1nnc(-c2ccccc2NC(=O)c2ccccc2F)n1	-6	0.1	2%	x	1
S=c1[nH]nc(-c2ccco2)n1-c1cccc2ccccc12	-7	1.3	12%	1	61
Cc1cccc(NCCC#N)c1	3	-1.7	1%	-1	1
N#CCC(CNc1ncc(C(F)(F)F)cc1Cl)OC(=O)c1cccc([N+](=O)[O-])c1 (stereo unspecified)	-30	0.6	-2%	-4	8
O=C1CSC(c2cn(-c3ccccc3)nc2-c2cccs2)N1Cc1ccccc1 (stereo unspecified)	-7	1.4	x	-1	1
CCOc1ccc(S(=O)(=O)N2CCOCC2)cc1NC(=O)CSCC(=O)Nc1ccc(C)cc1	x	0.5	x	x	-10
C#Cc1ccc(C(=O)Nc2ccc(N3CCC(C)CC3)c(C(N)=O)c2)cc1	x	-2.7	9%	-8	-3
O=C(Nc1cccc2ccccc12)c1cccc([N+](=O)[O-])c1	x	0.6	x	x	-4
CCn1c(SCC(=O)Nc2cc3oc4ccccc4c3cc2OC)nnc1-c1cccs1	-7	17	28%	10	85
C/C(=N\NS(=O)(=O)c1ccc(C)c([N+](=O)[O-])c1)c1cc2ccccc2o1	-8	1.3	-11%	5	-12
COc1ccc(Cc2nc3ccc(C(=O)N(C)CCn4ccnc4)cc3o2)cc1OC	x	1.9	x	x	-7
